# Source: PubChem
# CtBP-E1A blk: CtBP/E1A binding inhibition; AID 651724; 340,000 tested, 0.49% active; AlphaScreen GST-E1A/His-CtBP binding, 1536-well; stronger effect = lower value; control for the full effect not named in the record; activity change, % (no concentration beside the values); in the data active means activity change below about -65%; inconclusive means about -30% to -65%; inactive means above about -30%; further: on the % scale 0 is the no-effect control and ±100 the full control effect; compound concentration not given in the record
#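 GST-E1A and His-tagged CtBP (125 nM each as 5X stock) were preincubated with pin-transferred compound for 2 h at 37 °C in the dark, then glutathione donor and nickel acceptor beads were added for 1 h before AlphaScreen reading.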
# Menin-MLL FL inh: inhibitors of human menin-MLL interaction, wild-type MLL peptide | Fluorescence polarization, fluorescein-MLL peptide displacement from menin | FP activity change, % at 61.4 µM | 290,000 tested, under 10 active; inconclusive = falling polarisation curve, or a change in total fluorescence; inactive = total fluorescence flat and polarisation flat or rising; no compound was filed as active; the % refers to the polarisation; negative = inhibition;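 further: % of control where 0% means no effect; inhibitors lower the polarisation; unlabelled MLL peptide was the positive control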
# ClpP mod: qHTS Assay for Activators of ClpP; ATP-dependent Clp protease proteolytic subunit (Bacillus subtilis (strain 168)), P80244; purified B. subtilis ClpP, FRET peptide cleavage, 20 min; Potency, µM (doses to about 57.5 µM), without a hit: at the highest dose activity change, negative = active; 340,000 tested, 1.9% active; active = well fitted falling curve with a large enough effect; inconclusive = small, poorly fitted or top-dose-only effect; inactive = no such curve, though single readings can be large or run the other way; further: potency means the concentration at half of the fitted maximal effect; the source files actives as falling curves though it sought activators and does not explain the sign; nearly all actives have a fitted effect of over 65% in size; many hits overshoot -100%
# Target sequence (P80244 whole entry, looked up): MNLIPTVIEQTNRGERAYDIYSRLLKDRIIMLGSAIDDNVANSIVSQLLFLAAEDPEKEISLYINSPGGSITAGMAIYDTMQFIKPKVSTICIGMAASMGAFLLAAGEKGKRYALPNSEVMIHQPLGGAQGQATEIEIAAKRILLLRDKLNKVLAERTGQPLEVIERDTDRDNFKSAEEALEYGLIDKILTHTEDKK
#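 Buffer: 100 mM Tris/HCl pH8, 100 mM KCl, 0.05% low protease BSA, 2.5% glycerol, 0.01% Tween-20. ClpP 10 microg/mL final; 20 min RT; delta FRET normalized to ADEP and DMSO controls.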
# TRPV1 PAM: enhances activation of the human vanilloid receptor TRPV1 | TRPV1-expressing cells, Fluo-8 calcium influx, capsaicin EC20 potentiation; host cell line not named in the record; control for the full effect not named in the record | potentiation, % at 8.33 µM | 320,000 tested, 0.02% active; active means potentiation above 80%; inconclusive means 30% to 80%; inactive means below 30%; further: 0% is about no effect
# Target sequence (Q8NER1 whole entry, looked up): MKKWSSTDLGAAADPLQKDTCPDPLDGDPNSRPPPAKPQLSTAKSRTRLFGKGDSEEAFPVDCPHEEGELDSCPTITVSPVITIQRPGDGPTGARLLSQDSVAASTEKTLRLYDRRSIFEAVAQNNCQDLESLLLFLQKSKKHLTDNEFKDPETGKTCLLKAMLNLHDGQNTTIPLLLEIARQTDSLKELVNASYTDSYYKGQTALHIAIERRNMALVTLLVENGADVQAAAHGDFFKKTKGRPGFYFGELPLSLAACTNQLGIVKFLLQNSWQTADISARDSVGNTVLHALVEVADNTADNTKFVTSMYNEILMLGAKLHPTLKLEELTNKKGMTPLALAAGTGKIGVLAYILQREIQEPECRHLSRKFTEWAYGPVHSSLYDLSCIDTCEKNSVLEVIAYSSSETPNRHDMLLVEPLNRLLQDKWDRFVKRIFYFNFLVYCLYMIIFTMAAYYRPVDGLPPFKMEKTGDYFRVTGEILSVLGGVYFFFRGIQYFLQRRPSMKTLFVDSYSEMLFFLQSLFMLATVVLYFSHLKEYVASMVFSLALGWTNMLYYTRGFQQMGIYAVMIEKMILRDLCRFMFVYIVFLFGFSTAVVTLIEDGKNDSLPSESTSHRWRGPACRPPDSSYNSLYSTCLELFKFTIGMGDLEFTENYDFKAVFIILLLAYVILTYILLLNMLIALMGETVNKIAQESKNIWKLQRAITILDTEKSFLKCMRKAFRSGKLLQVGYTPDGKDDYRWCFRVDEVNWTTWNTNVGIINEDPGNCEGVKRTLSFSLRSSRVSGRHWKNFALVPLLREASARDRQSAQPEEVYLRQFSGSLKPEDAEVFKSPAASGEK
#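 TRPV1-expressing cells were cultured overnight at 35.5C and loaded with Fluo-8 calcium dye for 40 to 90 min at room temperature. After a 10 s baseline, compound was added and calcium influx was read kinetically for 3 min (ex 480/em 520 nm).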
# gsp antag: antagonists of gsp mutant (McCune-Albright syndrome); gsp-mutant cells, cAMP HTRF, 30 min; control for the full effect not named in the record; Potency, µM (highest dose often 76.9 µM), for the others: at the highest dose activity change, negative = inhibition, most hits filed as inhibitors; 340,000 tested, 0.4% active; active = falling curve of any shape with a large fitted effect; inconclusive = falling curve, mostly with a smaller effect; inactive = flat or rising curve; cell line not stated here;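 further: intracellular cAMP measured with PDE inhibitor Ro 20-1724 present during compound exposure; potency means the concentration at half of the fitted maximal effect; on the % scale 0 is the no-effect control and ±100 the full control effect; nearly all actives have a fitted effect of over 65% in size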
#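 Measurement of cellular cAMP by homogeneous time-resolved fluorescence following a 30 min compound exposure at 37C. The PDE inhibitor […] was present throughout; the assay buffer was DPBS with 0.05% BSA and 0.005% Tween 20.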
# Sfp PPTase inh: Sfp phosphopantetheinyl transferase inhibition; Q9F4F7; Biochemical Sfp PPTase activity, qHTS; Potency, µM, inactives show max response, negative = inhibition, actives largely listed as inhibitors; 310,000 tested, 3.5% active; AID 1490; active means well fitted inhibition curve with a large enough effect; inconclusive means small, poorly fitted or top-dose-only effect, or another doubt; inactive means no such curve, though single readings can be large or run the other way;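 further: the enzyme is Sfp with the accession as filed and its product quenches rhodamine fluorescence; potency means the concentration at half of the fitted maximal effect; 0% = enzyme reaction without inhibitor and -100% = no enzyme wells; top concentration of the series not given in the record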
#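 Buffer: 50 mM Hepes-Na pH 7.6, 10 mM MgCl2, 0.01% Nonidet P-40, 0.01% BSA. Enzyme 15 nM, pre-exposed to compound 15 min; substrates then added and fluorescence change tracked over 30 min.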
# gsp agonist: activates gsp, the McCune-Albright syndrome mutation. Potency, µM (series often up to 76.9 µM), without a hit: top-dose activation (cAMP increase), usual class: activators. gsp mutant cells, cAMP HTRF, 30 min; control for the full effect not named in the record. 340,000 tested, 0.13% active; active = well fitted activation curve with a large enough effect; inconclusive = small, poorly fitted or top-dose-only effect, or another doubt; inactive = no such curve, though single readings can be large or run the other way; cell line not stated here;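 further: phosphodiesterase inhibitor Ro 20-1724 added with compounds to block cAMP breakdown; potency means the concentration at half of the fitted maximal effect; nearly all actives have a fitted effect of over 60% in size; about a fifth of the inactives were tested at one dose only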
#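 Cells in DMEM/10% FBS with G418 were pretreated with compounds in DMSO plus […] (300 uM stock) for 30 min at 37C. cAMP was measured by HTRF (cAMP-d2 plus anti-cAMP antibody-K) after 30 min at room temperature.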
# Active calls of the source: *; i = inactive; ? = inconclusive; · = no result given; [ ] = dose if it differs, or a comment.
Molecule,CtBP-E1A blk,Menin-MLL FL inh,gsp antag,TRPV1 PAM,ClpP mod,Sfp PPTase inh,gsp agonist
CCN(CC(=O)Nc1ccc(NC(C)=O)cc1)C(=O)CC1OC(=O)c2ccccc21 (stereo not given),0,·,14%,9,-1.9%,·,?
O=C(O)c1c[nH]ccc1=O,-1,8.7,12%,-9,0.4%,-14%,-60%[inhibitor]
Cc1cc(NC(=O)CSc2nnc3c(C)cc4cc(C)c(C)cc4n23)no1,5,1.2,-14%,5,-1.3%,4%,-28%
COCCn1c(=S)[nH]c2cc(OC)c(OC)cc2c1=O,-3,-2.5,1%,22,0.0%,-21%,-3%
CC(NC(=O)c1ccc2c(c1)OCCO2)C(=O)O (stereo not given),13,-1.5,0%,4,0.1%,9%,-3%
CS(=O)(=O)N(CC(=O)Nc1cccc([N+](=O)[O-])c1)c1cccc(F)c1,-11,-0.5,-5%,5,0.3%,2%,-1%
CCOC(=O)CC(=O)CSc1nccc(-c2cccnc2)n1,1,8.1,-11%,18,·,56µM*,5%[15.4 µM]
Cc1cccc(C)c1NC(=O)CNC(=O)CCC(=O)c1cccs1,·,10.0,-1%,19,-1.4%,8%,-6%
COC(=O)c1cc(C(=O)NCc2ccccc2)c(=O)[nH]c1C,7,5.4,3%,1,·,19%,6%
Cn1nnnc1SCC(=O)Nc1ccc(Cl)cc1Cl,·,-1.1,·,13,·,24%,·
O=C(OCC(=O)N1CCCCCC1)c1cc(S(=O)(=O)N2CCOCC2)ccc1F,0,·,·,·,-2.4%,·,0%
Cc1ccc(NC(=O)CCn2cnc3cc(C)c(C)cc32)cc1,5,8.1,5%,9,1.6%,18%,-47%
O=C(NCc1nc2ccccc2[nH]1)c1ccc([N+](=O)[O-])cc1,2,2.3,11%,13,-0.9%,7%,-27%
COc1cccc(C2=CC(=O)CC(C)(C)C2=O)c1,6,·,·,·,1.2%,·,-27%
O=S(=O)(c1ccc(Cl)c(NC(=S)N/N=C/c2ccc(O)cc2)c1)N1CCOCC1,4,8.6,?,0,-2.1%,12%,-32%
Cc1cccnc1NC(=O)CSc1ncnc2sc(C)c(C)c12,3,·,1%,17,-3.6%,·,0%
O=C(c1ccc2c(c1)N(Cc1ccccc1)CCS2)N1CCOCC1,·,·,-6%,9,?,2%,?
COc1ccc([C@]23Cc4ccccc4C(O2)C2=C(CCCC2=O)O3)cc1,·,0.0[11.7 µM],·,i,·,20%,·
COc1cc(NC(C)C(=O)N2CC(C)OC(C)C2)cc(OC)c1 (stereo not given),-1,-9.5,-7%,-7,1.0%,-29%,-24%
CCC(=O)/C=C1\Sc2ccccc2N1CC,-13,4.7,7%,14,-1.4%,-18%,-1%
Cc1cc(OC(=O)C(c2ccccc2)c2ccccc2)c([N+](=O)[O-])c(=O)[nH]1,9,1.6,2%,23,-0.5%,1%,-4%
CC12CCC(C(=O)N(NC(=O)c3cc(Cl)ccc3O)C1=O)C2(C)C (stereo not given),-4,1.5,-8%,0,?,5%,12%
Cn1c(CCN2CCCCC2)nc2cc(NS(=O)(=O)c3ccc(F)cc3)ccc21,-7,-1.3,8%,-6,-3.7%,-15%,14%
CC(C)=CC(=O)Nc1ccccc1Br,5,-0.3,3%,-7,1.3µM*,14%,-2%
O=C(Nc1nc(-c2ccc(Cl)cc2)cs1)NC1CCCCC1,0,1.2,?,-4,0.8%,13%,-38%
S=C(NCCc1ccccc1)NCc1cccs1,-2,4.2,7%,-15,-1.3%,-14%,1%
COc1ccc2c(c1)c1c(n2C(C)=O)C(OC(C)=O)=NCC1,48,4.9,-14%,24,?,12%,-3%
COc1ccccc1NS(=O)(=O)c1cc(NC(=O)COc2ccccc2F)ccc1N1CCOCC1,0,·,-8%,·,1.2%,·,10%
O=C1CC(C(=O)O)C(c2ccccc2)c2ccccc21 (stereo not given),2,·,8%,·,·,·,0%
Nc1ccc(C(=O)Oc2ccc([N+](=O)[O-])cc2)cc1,·,-3.5,-1%,-8,-2.9%,-9%,?
C=C(C)Cn1c(SCC(=O)N/N=C/c2cccc(O)c2)nc2ccccc2c1=O,-6,1.1,14%,0,-2.0%,11%,-15%
Cc1nnc(SCC(=O)Nc2ncc3c(n2)CCCC3=O)s1,1,1.5,-5%,-5,-4.4%,7%,-43%[inhibitor]
CC(=O)c1cccc(NC(=O)c2csc3c2CCCCC3)c1,2,0.2,2%,0,·,9%,11%[15.4 µM]
COc1ccccc1/C=C/C(=O)NCC(=O)n1nc(C)cc1C,2,3.3,5%,-1,·,3%,-10%
CCOC(=O)CSc1nc2c(sc3ccccc32)c(=O)n1CCCN1CCOCC1,?,3.9,-17%,-18,-21%,-2%,-13%
O=C1c2ccccc2CCC12N=NCC2c1ccc(Cl)cc1 (stereo not given),11,0.7,0%,0,-0.8%,-5%,-29%
Cc1nc(N2CCN(C(=O)COc3ccccc3)CC2)c2c(C)c(C)sc2n1,1,1.2,-23%,-10,0.6%,6%,15%
CCOC(=O)c1cc(-c2ccccc2)sc1NC(=O)c1ccc(OC)c(OC)c1,-22,1.9,?,-3,-1.6%,32µM*,3%[15.4 µM]
Cc1cc(OC(=O)c2cccs2)ccc1C(C)C,58,2.1,2%,-18,0.8%,2%,1%
O=C(NCC(c1cccs1)N1CCOCC1)c1cccc([N+](=O)[O-])c1 (stereo not given),8,-2.7,-7%,-13,0.5%,3%,17%[15.4 µM]
CCOC(=O)c1c(NC(=O)c2ccc(N3CCOCC3)c([N+](=O)[O-])c2)sc(C)c1C,·,3.9,·,5,·,1%,·
COc1ccccc1N1CCN(C(=O)c2cc3c(s2)-c2ccccc2OC3)CC1,0,-2.4,7%,-8,14µM*,-3%,-39%
CC(C)N(Cc1nnc(-c2ccccc2Br)o1)C(=O)c1cc(Cl)nc2ccccc12,0,·,-27%,-18,-0.3%,·,-20%
CCCCOC(=O)c1[nH]c(C)c(C(=O)OC)c1C,10,-0.8,0%,-20,1.2%,-2%,-5%
CCOC(=O)N1CCN(C(=O)CS(=O)Cc2nc(-c3ccc(OC)c(OC)c3)oc2C)CC1 (stereo not given),·,·,6%,19,4.3%,2%,5%
C[C@H](CO)N1C[C@H](C)[C@@H](CN(C)S(=O)(=O)c2ccc(Cl)cc2)Oc2ccc(NS(=O)(=O)c3ccccc3)cc2CC1=O,14,·,-19%,·,2.8%,·,·
CCOc1ccc(S(=O)(=O)NCC2CCCO2)c2cccnc12 (stereo not given),4,0.7,1%,-5,40µM*,7%,14%
NCc1oc(-c2ccccc2)cc1C(=O)O,5,13,3%,0,·,-21%,27%
N#CCC(=O)N/N=C/c1cc(-c2ccccc2)n(-c2ccc(Cl)cc2)c1-c1ccccc1,2,-0.1,-29%,-3,-0.8%,12%,-6%[15.4 µM]
CCCOC(=O)c1c(-c2ccccc2)nc(CC)c(C(=O)SCC)c1CCC,6,4.2,-18%,-13,1.4%,·,·
N#Cc1ccc2[nH]cc(CCO)c2c1,6,-2.1,7%,-5,-2.7%,6%,·
Cc1ccc(N(Cc2ccc(C(=O)NN=C3CCN(C)CC3)cc2)S(C)(=O)=O)cc1C,12,-0.2,3%,13,-1.8%,8%,-11%
CNC(=S)N(CCc1c(C)[nH]c2ccc(F)cc12)Cc1ccco1,-5,-6.3,-24%,-1,·,3%,12%
O=C(c1cc(-c2cccc(Cl)c2)on1)N1CCCCCC1,8,6.3,-5%,-13,·,-22%,-21%[15.4 µM]
Cc1ccc(NC(=O)C(=O)NCCN2CCN(S(=O)(=O)c3ccccc3)CC2)cc1C,-8,-1.1,·,8,·,11%,2%[15.4 µM]
O=c1[nH]c2ccc(Cl)cc2[nH]1,-2,·,10%,·,·,·,-18%
CCC/C(=C1/c2ccccc2C(=O)N1c1ccccc1)c1ccc2[nH]ccc2c1,·,·,-6%,·,-19%,·,3%
CC1CCCC(NC(=O)C2CCCN2S(=O)(=O)c2cccc3nsnc23)C1C (stereo not given),-1,0.2,-9%,0,0.2%,?,-2%
NC(=O)[C@H]1CC2(CC(c3cccc(NC(=O)COc4ccc(Cl)cc4)c3)=NO2)CN1C(=O)c1ccccc1C(=O)c1ccccc1 (stereo not given in full),-3,-0.9,0%,4,0.5%,15%,·
O=C(NCCCn1ccnc1)c1cccc(S(=O)(=O)N2CCCCCC2)c1,-1,5.1,14%,-5,-1.6%,14%,?

# More records follow.
Molecule,CtBP-E1A blk,Menin-MLL FL inh,gsp antag,TRPV1 PAM,ClpP mod,Sfp PPTase inh,gsp agonist
CCCCOc1ccc(C(=O)Nc2ccc(N3CCN(C(=O)C(C)C)CC3)cc2)cc1,-1,1.1,-6%,-6,1.5%,16%,3%
CS(=O)(=O)N(Cc1ccc(C(=O)NCCSc2ccccn2)cc1)c1ccccc1,10,-7.6,-7%,5,-20%,12%,-13%[15.4 µM]
Cc1ccc(Cl)cc1NC(=O)N[C@@H](C)C(=O)O,6,2.1,15%,-10,0.8%,1%,?
COc1cccc(OC)c1NC(=O)CN1CCC(NC(=O)c2cccc(F)c2)CC1,4,0.5,4%[15.4 µM],-8,-0.3%,15%,-52%[inhibitor]
O=C1CCc2cc(S(=O)(=O)NC(Cc3ccccc3)C(=O)NCCC3=CCCCC3)ccc2N1 (stereo not given),-2,0.5,-8%,-22,1.5%,16%,-26%
COc1ccc(CNC(=O)COC(=O)c2c(-c3c(F)cccc3Cl)noc2C)cc1OC,5,10,-16%,-23,0.0%,3%,-40%
COc1ccc(OCC(=O)NNC(=O)c2cccc(O)c2)cc1,-9,2.6,-13%,1,·,18%,22%[15.4 µM]
Cc1cc(=O)[nH]c(-n2[nH]c3c(c2=O)CCCC3)n1,?,?,-14%,-1,0.6%,-12%,-17%
CC(=O)Nc1cc(S(=O)(=O)Nc2ccc(C)cc2)c(C)cc1C,8,17,6%,0,-2.3%,14%,-22%
Cc1cc(N2CCN(c3ccccc3)CC2)n2cc(-c3ccccc3)nc2n1,-14,2.1,?,1,?,?,-46%[inhibitor]
CCOC(=O)N1C(=O)NC(=O)C1c1ccccc1 (stereo not given),8,·,-9%,·,-1.9%,·,13%
